Mtb betalactam = beta-lactam sensitization of Mtb H37Rv; M. tuberculosis H37Rv growth with meropenem, percent inhibition; hits of this screen are not shown here; AID 434955; inhibition, % at 25 µM; hit rate 0.27% among 330,000;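 active = about 74% or more and at least 40 points above the plate without the antibiotic, then above 30% in a dose series; inconclusive = first-round hits that could not be retested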;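 also: growth measured after seven days incubation then overnight dye step; 0% = bacteria only wells and 100% = bacteria with antibiotic; twin plates without the antibiotic show which effects depend on it; some results filed as inactive read as strong as hits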
Mtb growth = M. tuberculosis H37Rv growth inhibitors, H37Rv strain (AID 1626); M. tuberculosis H37Rv growth inhibition; higher % means a stronger effect; hit rate 0.95% among 220,000; inhibition, % at 10 µM; hits with a dose series show IC50 in µM;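 active = confirmed in a dose series; inconclusive = inhibition above 80% but not taken into the dose series; inactive = below 80% or under 30% at every dose of the series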;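 also: bacteria incubated seven days before Alamar blue readout; 0% = bacteria only wells and 100% = bacteria with antibiotic wells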
YopH PTP inh = YopH (Yersinia) phosphatase inhibition | inhibition, %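 (about 10 µM by stock and volumes)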 | fluorescence Ex485/Em525 | hit rate 0.16% among 140,000;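 active = inhibition of 50% or more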;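 also: controls were vehicle for no effect and minimum signal wells for full effect; inactives centre near -20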
RecA intein inh = Mtb RecA intein splicing inhibition. P9WHJ3. cell-free RecA intein splicing, fluorescence. inhibition, %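 (about 9 µM by stock and volumes)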. hit rate 0.75% among 290,000. AID 2221; in the data active = inhibition above about 30%; inconclusive = no clear call, values can overlap the other calls;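 also: 0% = vehicle wells and 100% = reference inhibitor control wells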
Target sequence (P9WHJ3 whole entry, looked up): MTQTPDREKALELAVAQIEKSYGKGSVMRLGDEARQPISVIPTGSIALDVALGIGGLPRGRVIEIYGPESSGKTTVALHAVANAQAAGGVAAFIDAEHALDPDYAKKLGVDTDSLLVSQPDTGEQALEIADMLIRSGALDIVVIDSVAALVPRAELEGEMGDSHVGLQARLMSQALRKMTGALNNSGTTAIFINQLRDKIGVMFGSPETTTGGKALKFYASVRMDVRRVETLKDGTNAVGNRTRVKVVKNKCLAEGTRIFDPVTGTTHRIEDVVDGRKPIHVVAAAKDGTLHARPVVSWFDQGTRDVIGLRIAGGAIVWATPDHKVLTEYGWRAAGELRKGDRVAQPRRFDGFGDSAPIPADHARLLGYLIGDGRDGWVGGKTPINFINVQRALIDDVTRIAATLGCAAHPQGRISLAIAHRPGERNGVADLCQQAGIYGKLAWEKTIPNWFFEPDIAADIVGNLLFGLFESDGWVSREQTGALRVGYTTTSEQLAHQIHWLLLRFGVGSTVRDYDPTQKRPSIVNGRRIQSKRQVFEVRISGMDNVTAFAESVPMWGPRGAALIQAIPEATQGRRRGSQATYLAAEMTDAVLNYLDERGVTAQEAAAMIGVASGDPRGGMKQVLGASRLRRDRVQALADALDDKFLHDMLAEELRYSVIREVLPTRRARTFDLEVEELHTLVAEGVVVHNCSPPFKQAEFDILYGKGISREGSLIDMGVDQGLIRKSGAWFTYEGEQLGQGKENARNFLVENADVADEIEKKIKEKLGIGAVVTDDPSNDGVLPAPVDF
Arbovirus inh = arbovirus infection inhibition. arbovirus infection cell-based antiviral screen. inhibition, % at 10 µM. hit rate 0.37% among 200,000. AID 1251;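 active = inhibition from about 30%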;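 also: bluetongue infection of BSR cells; cell survival read as ATP light after 72 h; 0% = infected wells without compound and 100% = uninfected wells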
Arbovirus inh repeat = further read-out of Arbovirus inh, marked with its call; inhibition, %; measured here: 10K subset replicate screen; many hits read low in the repeat;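 first of two repeat runs on a subset; 0% = infected and 100% = uninfected wells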
An asterisk follows results filed as active; ? = inconclusive; . = no result given; & = joins results of further samples.

Sample of the layout:
SMILES	Mtb betalactam	Mtb growth	YopH PTP inh	RecA intein inh	Arbovirus inh	others
CCOc1ccc(OCC)c(NC(=O)C2CCCN(S(=O)(=O)c3ccc(C)cc3)C2)c1 (centres undefined)	-8.0	.	.	1.9	.
CCn1c2ccccc2c2cc(/C=N/n3c(C)nnc3C)ccc21	-5.6	-5.0%	-1.9	.	-24.7
CCOc1cc(S(=O)(=O)NCc2cccnc2)c(C)cc1C	-4.6	-0.4%	.	-0.4	-2.9
Cc1cccc(-n2ncc3c2CCCC3NC(=O)c2ccc[n+]([O-])c2)c1C (centres undefined)	0.5	.	.	-1.6	.
Cc1ccc(-n2c(O)c(C=NCc3ccco3)c(=O)[nH]c2=S)cc1C	-4.7	-6.0%	.	0.4	.
COc1ccc2nc(NC(=O)C3CCCO3)sc2c1 (centres undefined)	1.2	-7.5%	.	-2.0	4.1
CCCCOC(=O)Nc1nnc(-c2ccccc2OC)s1	8.1	4.0%	-34.1	0.6	-7.4

All compounds of this part, repeating the preview:
SMILES	Mtb betalactam	Mtb growth	YopH PTP inh	RecA intein inh	Arbovirus inh	others
CCOc1ccc(OCC)c(NC(=O)C2CCCN(S(=O)(=O)c3ccc(C)cc3)C2)c1 (centres undefined)	-8.0	.	.	1.9	.
CCn1c2ccccc2c2cc(/C=N/n3c(C)nnc3C)ccc21	-5.6	-5.0%	-1.9	.	-24.7
CCOc1cc(S(=O)(=O)NCc2cccnc2)c(C)cc1C	-4.6	-0.4%	.	-0.4	-2.9
Cc1cccc(-n2ncc3c2CCCC3NC(=O)c2ccc[n+]([O-])c2)c1C (centres undefined)	0.5	.	.	-1.6	.
Cc1ccc(-n2c(O)c(C=NCc3ccco3)c(=O)[nH]c2=S)cc1C	-4.7	-6.0%	.	0.4	.
COc1ccc2nc(NC(=O)C3CCCO3)sc2c1 (centres undefined)	1.2	-7.5%	.	-2.0	4.1
CCCCOC(=O)Nc1nnc(-c2ccccc2OC)s1	8.1	4.0%	-34.1	0.6	-7.4
Cc1ccc(Cl)cc1NC(=O)CCC(=O)O	-13.4	3.2%	.	-1.4	.
CCC(CC)c1nc(C#N)c(NC(C)c2ccccc2)o1 (centres undefined)	9.9	2.9%	-49.2	7.7	-10.0
O=C(CN1CCC(C(O)(c2ccccc2)c2ccccc2)CC1)Nc1ccccc1	3.5	0.4%	9.4	.	-15.9
Cc1cccc(C)c1-n1c(C)nn(CCOc2ccccc2)c1=O	-5.3	8.0%	.	-1.6	-1.4
O=C(N/N=C/c1ccc(OC(=O)c2ccccc2)cc1)c1ccc(CN2CCOCC2)cc1	4.0	-3.7%	-31.9	.	4.1
O=C(CN1C(=O)COc2ccccc21)NCCN1CCCC1	-2.5	.	.	-0.5	.
c1ccc(Cc2nnc3sc(-c4ccco4)nn23)cc1	-0.7	-3.0%	-43.6	6.0	3.4	Arbovirus inh repeat=3.0
COc1ccc(C2CC(c3ccc(Br)cc3)=NN2C(=O)CN2CCCC2)cc1 (centres undefined)	69.8	-1.9%	.	7.3	.
CC(=O)Nc1ccc(S(=O)(=O)NCCC(=O)OCC(=O)NNC(=O)c2ccccc2)cc1	-3.6	.	.	1.7	.
Cc1ccc2c(NC(=O)c3ccc(Br)o3)cccc2n1	-2.8	.	.	1.4	.
COc1ccc2oc(C(=O)OCC(=O)NC(=O)c3ccccc3)c(C)c2c1	-20.5	.	.	-1.0	.
O=C(NC1CCc2ccccc21)c1cc(COc2c(F)cccc2F)on1 (centres undefined)	-5.2	14.4%	.	1.1	.
CC12CCC(=O)N1C(C(=O)NCCc1ccccc1)CS2 (centres undefined)	-5.8	.	.	-0.9	.
CC(C(=O)N1CCOCC1)(c1ccccc1)c1ccccc1	-1.2	-6.0%	-29.7	-0.6	4.7
CC(C)CN(C(=O)COC(=O)c1ccccn1)c1c(N)n(Cc2ccccc2)c(=O)[nH]c1=O	-5.0	.	.	-2.2	.
CCCc1ccc2oc(C(=O)N3CCC(C(N)=O)(N4CCCCC4)CC3)c(C)c2c1	7.7	.	.	0.7	.
O=C(NCc1ccco1)c1cc2cc(Br)ccc2o1	-3.0	.	.	5.0	.
CCOc1ccc(NC(=O)C2CCCN(S(=O)(=O)c3ccc4c(c3)CCCN4C(C)=O)C2)cc1 (centres undefined)	0.6	.	.	-3.8	.
O=C(COc1ccc(Cl)cc1)NCCS(=O)(=O)N1CCN(c2ccccc2F)CC1	0.1	.	.	3.8	.
O=C(c1noc2c1CCCC2)N1CCN(C(c2ccccc2)c2ccccc2)CC1	.	8.3%	-13.5	.	1.7
CCOc1cc(NC(=S)NCCCN2CCOCC2)c(OCC)cc1NC(=O)c1ccccc1	-2.2	3.0%	.	-1.1	0.9
CCN(Cc1ccccc1)S(=O)(=O)c1c(N)n(C)c(=O)n(C)c1=O	2.7	.	.	0.1	.
CCN(Cc1ccccc1)C(=O)c1nn(-c2ccc(OC)cc2)c(=O)c2c1c1ccccc1n2C	9.2	-1.6%	.	4.0	-19.3
Clc1ccc2c(c1)C(c1ccccc1Cl)=NCc1nnc(N3CCN(CCSc4ccccc4)CC3)n1-2	84.8	.	2.4	11.7	-43.8
CN(C)c1cc(Nc2cccc(O)c2)c([N+](=O)[O-])c2nonc12	1.7	-7.5%	.	3.3	.
O=C(COC(=O)c1cccs1)NCc1ccco1	-9.3	-2.7%	.	0.9	.
N#Cc1nc(Cc2cccc3ccccc23)oc1NCCN1CCCCC1	-6.3	5.8%	-27.8	1.4	-13.7
COC(=O)C1CN(S(=O)(=O)c2cc(OC)ccc2OC)CCS1 (centres undefined)	3.8	.	.	-0.9	.
Cc1ccccc1C(=O)Nc1nnc(-c2ccc(C(C)(C)C)cc2)s1	2.6	6.6%	-3.0	0.5	3.4
Cc1nc2ccccc2n1/N=C/c1ccc([N+](=O)[O-])s1	99.8	<0.195µM*	-25.1	5.0	-31.8
CCOC(=O)c1nnn(-c2nonc2-n2cccc2)c1C	-5.2	8.8%	-59.0	1.9	7.9
COc1cccc(C2CC(=O)Nc3cc(OC)c(OC)c(OC)c32)c1OC (centres undefined)	-1.1	4.3%	-13.9	1.5	-5.3
CC(=O)Oc1ccc(N2C(=O)C3C4C=CC(C5CC45)C3C2=O)cc1[N+](=O)[O-] (centres undefined)	-4.5	0.3%	-22.2	-3.7	6.0
CCN(CC(=O)Nc1ccc2c(c1)OCCO2)C(=O)c1cccc(S(=O)(=O)N2CCOCC2)c1	0.6	-1.6%	-40.7	0.9	2.3
O=C(CSc1nccc2ccccc12)N1CCN(c2ccccn2)CC1	-2.1	.	-7.5	7.0	2.3	Arbovirus inh repeat=8.6
CC1CC(c2ccccc2)n2nc(NC(=O)c3cccs3)nc2N1 (centres undefined)	30.6	-0.4%	-46.3	-1.6	-0.8
COc1ccc(-c2[nH]ncc2/C=N\NC(=O)c2cccs2)cc1OC	2.3	.	.	-2.4	.
CCOC(=O)N1CCC(=C2c3ccc(Cl)cc3CCc3cccnc32)CC1	2.9	-1.0%&2.4%	-21.4	18.0	3.0&-5.6

Two compounds drawn at random from those above, as already listed:
SMILES	Mtb betalactam	Mtb growth	YopH PTP inh	RecA intein inh	Arbovirus inh	others
O=C(NCc1ccco1)c1cc2cc(Br)ccc2o1	-3.0	.	.	5.0	.
Cc1ccc2c(NC(=O)c3ccc(Br)o3)cccc2n1	-2.8	.	.	1.4	.

Returning to the listing; the 2 compounds before the break are reprinted first.
SMILES	Mtb betalactam	Mtb growth	YopH PTP inh	RecA intein inh	Arbovirus inh	others
COc1ccc(-c2[nH]ncc2/C=N\NC(=O)c2cccs2)cc1OC	2.3	.	.	-2.4	.
CCOC(=O)N1CCC(=C2c3ccc(Cl)cc3CCc3cccnc32)CC1	2.9	-1.0%&2.4%	-21.4	18.0	3.0&-5.6
O=C(NCc1ccccc1)/C(=C/c1ccc([N+](=O)[O-])cc1)NC(=O)c1ccco1	3.9	.	.	0.8	.
CC(NC(=O)c1ccccc1N)c1ccccc1 (centres undefined)	4.8	5.8%	.	-1.5	-0.9
COc1cccc(-n2c([S-])c(C(=O)Nc3ccc(S(=O)(=O)N4CCOCC4)cc3)[n+]3cc(C(N)=O)ccc23)c1	80.5	-3.8%	.	-0.3	.
CC(=O)N1CCN=C1SCc1ccccc1Cl	1.4	-11.4%	-50.1	7.1	1.0
CC1(C)Cc2c(c(=S)nc(-c3ccccc3)n2CCOCCO)CO1	-11.0	-2.4%	-17.7	0.7	4.7	Arbovirus inh repeat=6.8
CSc1ccc(Cl)c(C(=O)NCc2ccco2)c1	-1.7	4.6%	-21.3	0.3	-6.6	Arbovirus inh repeat=-0.1
CC(=O)Nc1ccc2[nH]c(C)c(CC=C(Cl)Cl)c(=O)c2c1	-2.9	-5.9%	42.0	-0.4	-1.9
Cc1ccccc1-c1noc(CCC(=O)NCc2ccco2)n1	-3.5	-3.2%	.	2.1	.
CCC(C)(C)NC(=O)C(c1cccc(OC)c1OC)N(Cc1ccccc1)C(=O)CCC(=O)Nc1cc(C)on1 (centres undefined)	1.5	.	.	-4.3	.
COc1ccc(N2CC(NS(=O)(=O)c3cccs3)CC2=O)cc1 (centres undefined)	-0.6	.	.	2.1	.
Cc1cc(Nc2ccc3c(c2)OCCO3)c2cccc(C)c2n1	1.9	7.3%	-12.2	1.6	-26.4
Cc1ccc(NC(=O)Cc2noc3ccccc23)nc1	-0.2	3.7%	-25.5	1.0	7.9
CN(C)CCN(C)Cc1c2ccccc2c(CN(C)CCN(C)C)c2ccccc12	0.6	.	.	-7.2	.
Cc1ccccc1Cn1cc(NC(=O)c2nn(C)cc2Cl)cn1	-5.2	0.7%	-25.7	4.1	-22.1
Cc1cccc(N2C(=O)C(Oc3ccc(Cl)cc3Cl)C2C(=O)O)c1C (centres undefined)	-5.2	-7.4%	-29.1	-3.3	-6.7
CCC(=O)n1nc(-c2cccnc2)nc1NCc1ccc(OC)cc1	4.0	3.8%	-12.8	-0.3	9.6
Clc1ccc(C=NC23CN4CN(CN(C4)C2)C3)cc1	-7.2	1.5%	-35.7	5.6	2.9	Arbovirus inh repeat=-0.3
Cc1ccc(-c2c(C#N)c(N)nc3c2CCCCCC3)o1	6.1	3.1%	-35.0	2.6	8.4
O=C(C1CCN(Cc2ccc(F)cc2)CC1)N(CCO)Cc1ccccc1	-2.1	-4.4%	7.9	-1.0	5.0
CCOCCCNC(=S)N1C2CCC1CC(NC(=O)NC1CCCCC1)C2 (centres undefined)	2.2	-1.3%	-43.5	-4.2	-0.5
Cc1c(C(=O)N2CCN(CCc3ccccn3)CC2)oc2ccc(F)cc12	?	.	.	0.9	.
COc1ccc([C@@H]2C[C@@H](c3ccccc3)Oc3cc(OC)c(OC)c(OC)c32)cc1	.	6.8%	.	4.0	.
O=C(NC1CC1)C1CCN(c2ccc(S(=O)(=O)N3CCOCC3)cc2Cl)CC1	-3.8	1.6%	-9.7	0.9	0.8
COc1ccc(C(CCN2CCCC(C)C2)c2c(OC)cc(OC)c3c2OC(=O)CC3c2cc(OC)c(OC)c(OC)c2)cc1 (centres undefined)	-2.7	-7.4%	.	2.0	.
O=C(CSc1cccc2cccnc12)Nc1ccccc1F	-4.3	.	.	-1.7	.
COc1ccc(OCCn2c(NC(=O)c3ccco3)nc3ccccc32)cc1	49.6	>100µM*	-28.5	1.8	0.0	Arbovirus inh repeat=-4.8
COc1ccc(NC(=O)CNCCC2=CCCCC2)cc1	6.4	0.7%	2.5	1.4	4.2
CC(=O)c1ccccc1NC(=O)c1ccc2c(c1)NC(=O)C(C)S2 (centres undefined)	-6.4	.	.	-2.0	.
Cc1ccc(S(=O)(=O)N2CCN(C(=O)c3cc(=O)[nH]c4ccccc34)CC2)c(C)c1	1.4	-3.9%	-3.1	1.8	0.3
CCn1cnc2c1c(=O)n(Cc1cccc([N+](=O)[O-])c1)c(=O)n2Cc1ccccc1	2.5	.	.	-0.2	.
Clc1ccc(CSc2nnc(/C=C/c3ccccc3)o2)cc1	20.5	-11.7%	-36.7	-0.1	2.1

Screening results (PubChem)

This is a subset; the hit share may differ from the screen's.
